Screening results as filed in PubChem BioAssay.
MLL AF4-AF9 inh – inhibitors of AF4 peptide binding to AF9, primary screen, biochemical, AlphaScreen, biotin-AF4 peptide, FLAG-AF9, single point; AID 651704, 2012; hit rate 0.47% among 350,000; Protein AF-9 (Homo sapiens), P42568; inhibition, % at 10 µM;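 active = every replicate reaching a set inhibition limit, whatever the replicate mean, cut at about 25% in these data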;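 note: 0% = plate neutral control median and 100% = total signal loss; the record names both 10 and 1 µM as test concentration; the first replicate is given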
Target sequence (P42568 whole entry, looked up): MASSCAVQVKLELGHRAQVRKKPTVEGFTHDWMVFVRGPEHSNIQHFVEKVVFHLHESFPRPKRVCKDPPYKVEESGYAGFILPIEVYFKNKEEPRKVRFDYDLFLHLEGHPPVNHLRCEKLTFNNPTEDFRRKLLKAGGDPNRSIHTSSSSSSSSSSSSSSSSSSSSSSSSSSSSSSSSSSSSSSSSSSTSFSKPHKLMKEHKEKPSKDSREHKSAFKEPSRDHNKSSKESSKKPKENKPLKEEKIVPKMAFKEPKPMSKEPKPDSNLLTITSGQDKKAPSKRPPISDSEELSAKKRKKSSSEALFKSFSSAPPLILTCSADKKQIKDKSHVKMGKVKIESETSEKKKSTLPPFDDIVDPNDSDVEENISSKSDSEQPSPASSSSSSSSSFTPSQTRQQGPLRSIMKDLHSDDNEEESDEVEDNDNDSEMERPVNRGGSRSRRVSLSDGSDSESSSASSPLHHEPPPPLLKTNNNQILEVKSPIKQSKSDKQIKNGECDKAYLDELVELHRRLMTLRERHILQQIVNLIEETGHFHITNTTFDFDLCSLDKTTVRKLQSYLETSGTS
FGF22 binding – binders of human FGF22 protein, primary screen, FGF22 synaptogenesis inhibitor project, biophysical, thermal shift, single point; Fibroblast growth factor 22 (Homo sapiens), Q9HCT0; recombinant FGF22 thermal shift, SYPRO orange fluorescence; percent of sucrose octasulfate shift, DMSO zero; calls only at 9.99 µM; hit rate 1.5% among 340,000; AID 651658, 2012;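 active = melting point raised past a set limit in the mean and every replicate; three in four hits are not shown here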
Target sequence (Q9HCT0 whole entry, looked up): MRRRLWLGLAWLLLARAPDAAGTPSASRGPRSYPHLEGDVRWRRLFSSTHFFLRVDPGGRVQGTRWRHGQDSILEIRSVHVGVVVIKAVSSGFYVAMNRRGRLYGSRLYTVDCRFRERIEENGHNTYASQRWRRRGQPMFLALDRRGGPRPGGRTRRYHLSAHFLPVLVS
* = called active by the depositor; i = inactive. An excerpt (hit frequency here may not be typical).

Compound	MLL AF4-AF9 inh	FGF22 binding
COc1ccc(NC(=O)Nc2ccc3c(c2)C(=O)N([C@H](C)CO)C[C@H](C)[C@H](CN(C)S(=O)(=O)c2ccc(C)cc2)OCCCC[C@@H](C)O3)cc1	-7.8	i
C[C@@H]1CN([C@H](C)CO)C(=O)Cc2cc(NC(=O)CCC(F)(F)F)ccc2O[C@@H]1CN(C)Cc1ccc(C(=O)Nc2ccccc2N)cc1	2.6	i
C[C@@H]1CN([C@@H](C)CO)C(=O)c2c(c3ccccc3n2C)-c2ccccc2CO[C@H]1CN(C)Cc1ccc(-c2ccccc2)cc1	1.3	i
C[C@H](CO)N1C[C@H](C)[C@@H](CN(C)C(=O)NC2CCCCC2)Oc2c(NC(=O)c3cnccn3)cccc2C1=O	-2.7	i
CON(Cc1ccccc1)S(=O)(=O)c1ccccc1Br	-5.4	i
C[C@@H]1CN([C@H](C)CO)C(=O)c2cc(NC(=O)c3ccncc3)ccc2O[C@@H]1CN(C)C(=O)Nc1ccc2c(c1)OCO2	-2.6	i
CN(C)C(=O)c1ccc(-c2ccc([C@H]3[C@H](CO)N4CCCCN(C(=O)C5CCC5)C[C@@H]34)cc2)cc1	-6.0	i
C[C@@H]1CN([C@H](C)CO)C(=O)Cc2cc(NC(=O)CCCCCC(=O)Nc3ccccc3N)ccc2O[C@H]1CN(C)C(=O)Nc1ccc2c(c1)OCO2	-3.5	i
C[C@H](CO)N1C[C@H](C)[C@H](CN(C)Cc2ccc(Cl)c(Cl)c2)Oc2ccc(NC(=O)Nc3ccc(C(F)(F)F)cc3)cc2CC1=O	-1.1	i
CN1c2ccc(C3=CCCCC3)cc2[C@H]2[C@H](CCN2S(=O)(=O)c2ccccc2F)[C@@H]1CO	-1.1	i
C/C=C/c1ccc([C@@H]2[C@@H](CO)N(C(=O)c3cnccn3)C23CN(C(=O)C2CCC2)C3)cc1	3.1	i
O=C(C[C@H]1CC[C@@H](NC(=O)C2CCOCC2)[C@H](CO)O1)Nc1ccc(-c2ccccc2)cc1	-1.0	i
COc1ccc(S(=O)(=O)Nc2ccc3c(c2)CC(=O)N([C@@H](C)CO)C[C@@H](C)[C@@H](CN(C)C(=O)NC2CCCCC2)O3)cc1	-2.1	i
C/C=C/c1ccc([C@H]2[C@@H](CO)N(C(C)=O)[C@@H]2CNC(=O)c2ccncc2)cc1	1.7	i
O=C1CNC[C@@H]2[C@@H](c3ccc(C#Cc4cccnc4)cc3)[C@@H](CO)N12	-5.2	i
CCC(=O)N1[C@H](C(=O)N2CCCCC2)[C@@H](CO)[C@@H]2Cn3c(cccc3=O)[C@@H]21	-0.4	i
C[C@@H]1CN([C@@H](C)CO)C(=O)c2cc(-c3cccc(C(=O)N(C)C)c3)cnc2O[C@@H]1CN(C)C	-2.9	i
CO[C@H]1CN(C)C(=O)c2cc(NS(C)(=O)=O)ccc2OC[C@H](C)N(CCC(F)(F)F)C[C@H]1C	-1.3	i
C[C@@H]1CN([C@H](C)CO)C(=O)c2cccc(NS(=O)(=O)c3ccccc3)c2O[C@@H]1CN(C)C(=O)Nc1ccc2c(c1)OCO2	0.1	i
CS(=O)(=O)Nc1ccc2c(c1)[C@H]1C[C@H](CC(=O)NCc3ccc(Cl)cc3)O[C@@H](CO)[C@H]1O2	-1.9	i
COc1cccc(NC(=O)N[C@@H]2C=C[C@@H](CC(=O)N3CCCCC3)O[C@H]2CO)c1	-1.6	i
C[C@@H]1CN([C@H](C)CO)C(=O)Cc2cc(NC(=O)CCC(F)(F)F)ccc2O[C@H]1CN(C)S(C)(=O)=O	-2.3	i
C[C@H](CO)N1C[C@H](C)[C@H](CN(C)S(=O)(=O)c2ccc(C#N)cc2)Oc2ncc(-c3ccc(F)cc3)cc2C1=O	-1.1	i
Cc1noc(C)c1NC(=O)N(C)C[C@H]1OCCCC[C@H](C)Oc2ccc(NC(=O)C3CCCCC3)cc2C(=O)N([C@@H](C)CO)C[C@H]1C	-2.6	i
CN(C)C(=O)C[C@H]1CC[C@H]2[C@@H](COC[C@@H](O)CN2S(=O)(=O)c2ccccc2)O1	-1.2	i
Cc1ccc(S(=O)(=O)N(C)C[C@@H]2OCCCC[C@H](C)Oc3ccc(NS(=O)(=O)c4ccc(Cl)cc4)cc3C(=O)N([C@H](C)CO)C[C@H]2C)cc1	-2.9	i
C[C@@H]1CN([C@@H](C)CO)S(=O)(=O)c2ccc(C#CC3CC3)cc2O[C@@H]1CN(C)C(=O)C1CC1	0.1	i
C[C@@H]1CN([C@H](C)CO)C(=O)Cc2cc(NC(=O)Nc3ccc(F)cc3)ccc2O[C@@H]1CN(C)CC1CCCCC1	3.0	i
Cc1ccc(S(=O)(=O)N(C)C[C@H]2Oc3c(NS(C)(=O)=O)cccc3C(=O)N([C@@H](C)CO)C[C@H]2C)cc1	-0.4	i
C[C@H]1CCCCO[C@H](CN(C)C(=O)Nc2ccc3c(c2)OCO3)[C@@H](C)CN([C@@H](C)CO)C(=O)c2cc(NS(=O)(=O)c3cccs3)ccc2O1	5.8	i
C[C@@H]1CCCCO[C@@H](CN(C)S(=O)(=O)c2ccc(Cl)cc2)[C@H](C)CN([C@H](C)CO)C(=O)c2cc(NC(=O)Cc3ccccc3)ccc2O1	-0.8	i
CO[C@@H]1CN(C)C(=O)c2cc(NC(C)=O)ccc2OC[C@@H](C)N(CCC(F)(F)F)C[C@H]1C	-13.0	i
C[C@H]1CN([C@@H](C)CO)C(=O)c2cccc(NC(=O)Nc3ccc4c(c3)OCO4)c2O[C@@H]1CN(C)Cc1ccccc1	6.8	i
CCC(=O)N(C)C[C@@H]1Oc2cc(C#Cc3ccncc3)ccc2S(=O)(=O)N([C@@H](C)CO)C[C@@H]1C	0.1	i
O=C(C[C@@H]1CC[C@H](NC(=O)c2ccccn2)[C@@H](CO)O1)NCc1cccc(F)c1	1.4	i
O=S(=O)(Cc1ccccc1)N1CCCCN2[C@H](C1)[C@H](c1ccc(C#Cc3ccccc3)cc1)[C@@H]2CO	-2.7	i
C[C@@H]1CN([C@@H](C)CO)C(=O)c2cccc(NC(=O)c3ccncc3)c2O[C@H]1CN(C)Cc1ccccc1	-1.1	i
C[C@@H]1CN([C@@H](C)CO)C(=O)c2cc(NS(=O)(=O)c3ccccc3)ccc2O[C@@H](C)CCCCO[C@@H]1CN(C)Cc1ccccc1	3.6	i
C[C@@H]1CN([C@@H](C)CO)C(=O)c2cccc(NC(=O)Nc3ccc4c(c3)OCO4)c2O[C@@H]1CN(C)C(=O)Nc1ccc(C(F)(F)F)cc1	10.8	i
Cc1ccc(S(=O)(=O)N(C)C[C@@H]2OCCCC[C@@H](C)Oc3ccc(NS(C)(=O)=O)cc3C(=O)N([C@H](C)CO)C[C@@H]2C)cc1	-0.6	i
C[C@@H]1CN([C@H](C)CO)C(=O)c2cccc(NC(=O)c3ccncc3)c2O[C@@H]1CN(C)S(=O)(=O)c1ccc(F)cc1	-3.2	i
CN1C(=O)c2cc(NC(=O)c3ccccc3)ccc2OC[C@H]2O[C@H](CC(=O)NCC3CC3)CC[C@H]21	-2.3	i
C[C@H]1CCCCO[C@H](CN(C)C)[C@@H](C)CN([C@@H](C)CO)C(=O)c2cc(NC(=O)Nc3ccc(C(F)(F)F)cc3)ccc2O1	7.3	i
Cc1noc(C)c1S(=O)(=O)Nc1ccc2c(c1)C(=O)N([C@H](C)CO)C[C@@H](C)[C@@H](CN(C)Cc1ccc(Oc3ccccc3)cc1)O2	8.2	i
CO[C@H]1CN(C)C(=O)c2cc(NC(=O)CC(F)(F)F)ccc2OC[C@H](C)N(C(C)=O)C[C@@H]1C	-9.0	i
COc1ccccc1NC(=O)Nc1ccc2c(c1)C(=O)N(C)C[C@@H](OC)[C@@H](C)CN[C@@H](C)CO2	-0.3	i
O=C(C[C@@H]1CC[C@@H]2[C@H](COC[C@H](O)CN2C(=O)Nc2ccc(Cl)c(Cl)c2)O1)NCc1ccc(Cl)c(Cl)c1	3.1	i
O=C(C[C@@H]1CC[C@@H]2[C@H](COC[C@H](O)CN2S(=O)(=O)c2ccc(F)cc2)O1)N[C@H]1CCN(Cc2ccccc2)C1	0.3	i
CC(=Nc1ccc(Cl)cc1N)c1c(O)cc(C)oc1=O	1.6	i
C[C@@H]1CCCCO[C@@H](CN(C)C(=O)Nc2ccc(C(F)(F)F)cc2)[C@@H](C)CN([C@H](C)CO)C(=O)c2cc(NC(=O)Nc3ccc(F)cc3)ccc2O1	-5.1	i
CCC(=O)N1CC2(C1)CN(Cc1ccccc1Cl)[C@@H](CO)c1c2c2ccc(OC)cc2n1C	1.1	i
C[C@H]1CN([C@@H](C)CO)C(=O)c2cccc(NC(=O)C3CC3)c2O[C@H]1CN(C)C(=O)Nc1ccc(F)cc1	-2.0	i
CCCNC(=O)NC[C@@H]1[C@H](c2ccc(C3=CCCC3)cc2)[C@H](CO)N1C(=O)CC	-1.3	i
CCNC(=O)C[C@@H]1CC[C@H]2[C@H](COc3ccc(NC(=O)Nc4cccc(C)c4)cc3C(=O)N2C)O1	0.1	i
C[C@@H]1CN([C@@H](C)CO)C(=O)c2cc(NS(=O)(=O)c3cccs3)ccc2O[C@@H](C)CCCCO[C@H]1CN(C)CC1CCCCC1	17.7	i
CCCN(C)C[C@@H]1Oc2ncc(-c3cccc(C(=O)N(C)C)c3)cc2C(=O)N([C@H](C)CO)C[C@@H]1C	-2.1	i
CC(C)CC#Cc1cnc2c(c1)C(=O)N([C@@H](C)CO)C[C@@H](C)[C@@H](CN(C)Cc1ccccc1)O2	0.4	i
O=C(C[C@H]1C=C[C@H](NC(=O)Cc2ccccn2)[C@@H](CO)O1)NCCc1ccncc1	-1.8	i
COc1ccc(S(=O)(=O)Nc2ccc3c(c2)CC(=O)N([C@H](C)CO)C[C@H](C)[C@@H](CN(C)CC2CCCCC2)O3)cc1	8.7	i
COCC(=O)NC[C@H]1[C@@H](c2ccccc2)[C@@H](CO)N1C(C)=O	-1.8	i

Sorted by length of the SMILES (lowest first): part of the list above.
Compound	MLL AF4-AF9 inh	FGF22 binding
O=C(C[C@H]1C=C[C@H](NC(=O)Cc2ccccn2)[C@@H](CO)O1)NCCc1ccncc1	-1.8	i
C[C@H]1CN([C@@H](C)CO)C(=O)c2cccc(NC(=O)C3CC3)c2O[C@H]1CN(C)C(=O)Nc1ccc(F)cc1	-2.0	i
COc1ccc(S(=O)(=O)Nc2ccc3c(c2)CC(=O)N([C@H](C)CO)C[C@H](C)[C@@H](CN(C)CC2CCCCC2)O3)cc1	8.7	i
Cc1noc(C)c1S(=O)(=O)Nc1ccc2c(c1)C(=O)N([C@H](C)CO)C[C@@H](C)[C@@H](CN(C)Cc1ccc(Oc3ccccc3)cc1)O2	8.2	i
C[C@@H]1CCCCO[C@@H](CN(C)C(=O)Nc2ccc(C(F)(F)F)cc2)[C@@H](C)CN([C@H](C)CO)C(=O)c2cc(NC(=O)Nc3ccc(F)cc3)ccc2O1	-5.1	i

Additional entries follow:
Compound	MLL AF4-AF9 inh	FGF22 binding
CC(=O)N(C)C[C@H]1[C@@H](c2ccc(-c3ccc(F)cc3)cc2)[C@@H](CO)N1C(C)=O	-11.8	i
CCC(=O)N1CC2(C1)CN(Cc1ccc3c(c1)OCO3)[C@H](CO)c1c2c2ccc(OC)cc2n1C	-0.1	i
CN(C)C(=O)c1cccc(-c2ccc([C@H]3[C@H]4CN(C(=O)C5CCCC5)CCCCN4[C@H]3CO)cc2)c1	0.1	i
CCCCCCCCN1C(=O)[C@@H](CC(=O)NCC2CCCCC2)C[C@@]2(C(=O)OC)C1=C[C@H](C1CCCC1)O[C@@H]2C	-0.3	i
C[C@@H](O)C#Cc1ccc2c(c1)O[C@H](CN(C)C(=O)C1CC1)[C@@H](C)CN([C@@H](C)CO)S2(=O)=O	-3.6	i
CCCC(=O)N1CC2(C1)CN(C(=O)Nc1cccc(F)c1)[C@H](CO)c1c2c2ccc(OC)cc2n1C	12.3	i
Cc1ccc(S(=O)(=O)N[C@@H]2CC[C@H](CCn3cc(-c4ccccc4F)nn3)O[C@H]2CO)cc1	-2.4	i
CCCN1C[C@H](C)[C@@H](OC)CN(C)C(=O)c2ccc(NC(=O)C3CCOCC3)cc2OC[C@@H]1C	-2.6	i
C[C@H](CO)N1C[C@H](C)[C@H](CN(C)C(=O)Nc2ccccc2)Oc2c(NC(=O)C3CCCCC3)cccc2C1=O	0.7	i
COc1ccc(NC(=O)Nc2cccc3c2O[C@@H](CN(C)C(=O)NC2CCCCC2)[C@@H](C)CN([C@@H](C)CO)C3=O)cc1	5.6	i
Cc1ccc(S(=O)(=O)N(C)C[C@@H]2Oc3ccc(NS(C)(=O)=O)cc3CC(=O)N([C@@H](C)CO)C[C@H]2C)cc1	-11.6	i
COc1ccccc1CN1C(=O)c2ccccc2[C@@H](C(=O)NCc2ccccc2)[C@@H]1c1ccc(CO)cc1	-2.8	i
C[C@H](O)C#Cc1cnc2c(c1)C(=O)N([C@@H](C)CO)C[C@H](C)[C@H](CN(C)Cc1cncnc1)O2	-0.6	i
CC(C)NC(=O)N(C)C[C@@H]1Oc2ccc(NC(=O)NC3CCCCC3)cc2C(=O)N([C@H](C)CO)C[C@@H]1C	-0.6	i
C[C@H](CO)N1C[C@H](C)[C@@H](CN(C)Cc2ccc(-c3ccccc3)cc2)Oc2ncc(C#CCN(C)C)cc2C1=O	18.7	i
C[C@@H]1CCCCO[C@@H](CN(C)C(=O)CCC(F)(F)F)[C@@H](C)CN([C@H](C)CO)C(=O)c2cc(NS(=O)(=O)c3ccccc3)ccc2O1	-2.4	i
